Screening results (PubChem)
miR-21 reporter: qHTS Assay for Modulators of miRNAs and/orActivators of miR-21 | HeLa miR-21 FLuc reporter, luciferase, 48 h | Potency, µM (series often up to 38.3 µM), for the others: at the highest dose reporter change, positive = more light | 340,000 tested, under 10 active; active = well fitted rising curve with a large enough effect; inconclusive = small, poorly fitted or top-dose-only effect; inactive = no such curve, though single readings can be large or run the other way;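 further: % of control where 0% means no effect; miR-21 action dims this reporter so a rising signal means less miR-21 action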
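HeLa cells endogenously expressing miR-21, stably carrying CMV-driven firefly luciferase with a downstream miR-21 binding site, 2000 cells/well. Titrations up to approximately 40 uM, 48 hours; luciferase luminescence read.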
GLA inh pH 4.5: qHTS Assay for Inhibitors of Human alpha-Galactosidase at pH 4.5; Alpha-galactosidase A (Homo sapiens), P06280; purified enzyme, 4-MU-alpha-Gal fluorescence, pH 4.5; activity change, negative = inhibition, % at 105 µM; 230,000 tested, under 10 active; inconclusive = small, poorly fitted or top-dose-only inhibition, or a rising curve; inactive = flat fitted curve, though single readings scatter; no compound was filed as active;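 further: 0% = full activity with enzyme and -100% = basal without enzyme; dose as in the result columns while the protocol names 77 µM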
Target sequence (P06280 whole entry, looked up): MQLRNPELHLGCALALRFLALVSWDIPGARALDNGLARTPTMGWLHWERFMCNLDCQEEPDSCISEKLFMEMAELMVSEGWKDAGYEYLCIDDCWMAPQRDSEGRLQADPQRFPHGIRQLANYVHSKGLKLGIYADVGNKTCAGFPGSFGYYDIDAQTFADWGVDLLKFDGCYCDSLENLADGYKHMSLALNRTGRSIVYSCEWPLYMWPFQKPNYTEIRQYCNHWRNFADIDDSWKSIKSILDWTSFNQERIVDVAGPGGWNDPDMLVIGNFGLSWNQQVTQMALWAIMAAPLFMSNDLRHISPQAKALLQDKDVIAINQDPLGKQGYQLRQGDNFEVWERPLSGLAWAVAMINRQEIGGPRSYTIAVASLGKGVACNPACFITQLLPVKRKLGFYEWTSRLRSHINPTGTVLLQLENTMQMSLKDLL
Rango complex inh: qHTS Assay for Inhibitors of Rango (Ran-regulated importin-beta cargo) - Importin beta complex formation; Importin subunit beta-1 (Homo sapiens), Q14974; Rango CFP/YFP FRET sensor + importin beta, 45 min; Potency, µM (doses to about 92.2 µM), for the others: at the top dose inhibition of complex formation; 0.031% of 340,000 active; AID 540263, 2011; active = rising FRET ratio curve, often small or poorly fitted; inconclusive = mostly compound fluorescence or quenching in the first reads; inactive = flat curves in all reads;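 further: potency means the concentration at half of the fitted maximal effect; 0% = DMSO wells and 100% = buffer wells lacking importin beta; nearly all actives have a fitted effect of over 15% in size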
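FRET biosensor Rango (snurportin 1 IBB between N-terminal EYFP and C-terminal Cerulean), 50 nM in PBS/1 mM DTT/0.02% Tween-20/0.1% BSA, preincubated 5 min RT with compound; 0.125 microM importin beta added, 45 min RT, CFP/YFP FRET ratio read.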
Rango dissoc inh: qHTS Assay for Inhibitors of RanGTP induced Rango (Ran-regulated importin-beta cargo) - Importin beta complex dissociation | Biochemical FRET Rango-importin beta, RanGTP-induced dissociation | AID 540253, 2011 | Potency, µM (doses to about 46.1 µM), without a hit: at the top dose activity change, negative = inhibition | Snurportin-1 (Homo sapiens) + GTP-binding nuclear protein Ran (Homo sapiens) + Importin … | 0.071% of 340,000 active; active means falling FRET ratio curve, often poorly fitted, with flat reads before Ran was added; inconclusive means other falling curves, or compound fluorescence or quenching; inactive means flat or rising ratio curve;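 further: potency means the concentration at half of the fitted maximal effect; % of control where 0% means no effect; nearly all actives have a fitted effect of over 45% in size; -100% = wells without RanGTP and RCC1; the record marks most hits as doubtful in a second field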
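Compounds sat 5 min at room temperature with 0.1 uM Rango biosensor plus 0.25 uM importin beta, then FRET pre-read. RanGTP-RCC1 (0.6 uM Ran, 2mM GTP, 0.2 uM RCC1) added for 45 min, and the CFP/YFP post-read measured blocked complex dissociation.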
The depositor's hits bear a star; u = inconclusive; x = not tested or not shown; & = joins results of further samples.

SMILES	miR-21 reporter	GLA inh pH 4.5	Rango complex inh	Rango dissoc inh
O=C(CSc1nc2scc(-c3ccccc3)c2c(=O)[nH]1)N1CCCCC1	-8%	-6	u	-19%
COCCNC(=O)CN(C(=O)CCC(=O)Nc1cc(C)on1)c1ccccc1C	2%	-2	2.5%	31%
Cc1ccccc1OCCCC(=O)Nc1ccc(S(=O)(=O)Nc2onc(C)c2C)cc1	0%	x	-0.2%	8%
O=C(CNC(=O)c1cccs1)N/N=C/c1ccc(O)cc1O	4%	-8	1.2%	-23%
CNC(=S)N(CCCN(C)C)Cc1cc2cc3c(cc2[nH]c1=O)OCCO3	-9%	x	-1.6%	-13%
Cc1ccnc2c1ccc1c(C)ccnc12	x	x	-0.5%	19%
COc1cc(/C=N/NC(=O)c2ccncc2)ccc1OCC(=O)Nc1ccccc1	-49%	x	1.0%	12%
O=C(NCC(=O)N(Cc1cccs1)C(C(=O)NC1CCCC1)c1ccco1)c1cccs1 (configuration not stated)	10%	0	-4.3%	1%
CCN(C(=O)CSc1nc2ccccc2n1CC(C)C)c1c(N)n(Cc2ccccc2)c(=O)[nH]c1=O	x	x	-0.6%	-11%
Cc1[nH]c(-c2ccc(F)cc2)cc1C(=O)N1CCN(c2ccc(Cl)cc2)CC1	3%	x	2.7%	-6%
CCS(=O)(=O)N1CCN(c2ccccc2)CC1	-1%	1	1.4%	0%
O=C(N/N=C/c1cccs1)c1cc(C2CC2)nc2ccccc12	23%	-8	5.2%	10%

Continued; the last 5 above are carried over.
SMILES	miR-21 reporter	GLA inh pH 4.5	Rango complex inh	Rango dissoc inh
O=C(NCC(=O)N(Cc1cccs1)C(C(=O)NC1CCCC1)c1ccco1)c1cccs1 (configuration not stated)	10%	0	-4.3%	1%
CCN(C(=O)CSc1nc2ccccc2n1CC(C)C)c1c(N)n(Cc2ccccc2)c(=O)[nH]c1=O	x	x	-0.6%	-11%
Cc1[nH]c(-c2ccc(F)cc2)cc1C(=O)N1CCN(c2ccc(Cl)cc2)CC1	3%	x	2.7%	-6%
CCS(=O)(=O)N1CCN(c2ccccc2)CC1	-1%	1	1.4%	0%
O=C(N/N=C/c1cccs1)c1cc(C2CC2)nc2ccccc12	23%	-8	5.2%	10%
Cc1cccc(NC(=O)c2cccc(S(=O)(=O)Nc3c(C)n(C)n(-c4ccccc4)c3=O)c2)c1	x	x	-2.8%	-12%
CCOC(=O)/C=C/C(=O)Nc1ccc(S(=O)(=O)Nc2c(C)cc(C)cc2C)cc1	-11%	1	0.8%	10%
COc1ccc(OC)c(S(=O)(=O)N2CCN(c3ccccn3)CC2)c1	-4%	3	-1.6%	13%
CC1CCCN(C(=O)COC(=O)Cc2ccc(Cl)cc2)C1 (configuration not stated)	-5%	x	-1.4%	0%
CC[C@H](C)Cc1cn([C@@H](CCCN=C(N)N)C(=O)NCCCCCCCCCCC(=O)N2CCNCC2)nn1	x	x	3.0%	0%
O=C(COC(=O)CNC(=O)c1ccc(Cl)cc1Cl)NC1CCCCCCC1	x	x	0.4%	-2%
CCC(C(=O)NCCCN1CCOCC1)n1c2ccccc2c2nc(=O)cc(C)n21 (configuration not stated)	-2%	x	1.8%	11%
CCS(=O)(=O)N1Cc2ccccc2CC1C(=O)OCC(=O)Nc1ccc(C)cc1 (configuration not stated)	-1%	-20	-1.9%	-8%
CCOC(=O)N1CCN(C(=S)NC(=O)c2ccc(F)cc2)CC1	-2%	10	0.0%	2%
Cc1nc2ncccn2c1-c1csc(Nc2cccc(C(=O)O)c2)n1	0%	x	0.8%	2%
Clc1ccc(-c2cn3cc(Cl)ccc3n2)cc1	-32%	x	u	-5%
CCC(=O)c1cc2c(cc1NC(=O)C(C)C)OCCO2	-1%	2	-0.5%	-2%
COc1ccc(C(CNC(=O)c2cccnc2SC)N2CCOCC2)cc1 (configuration not stated)	-8%	-7	4.2%	-5%
CC1=CCC(C(=O)N/N=C/c2cccs2)C(c2ccc(F)cc2)C1 (configuration not stated)	-8%	2	-0.1%	13%
CCOc1ccc(NC2=NC(C)(C)N=C(N)N2)cc1	-1%	3	0.6%	0%
COc1ccc(C(=O)NC(=O)CSc2nc3nc(C)cc(C)n3n2)cc1	x	x	-3.5%	0%
O=C(O)c1cc(NN=Nc2ccc(Br)cc2)cc([N+](=O)[O-])c1	-1%	-11	0.6%	2%
O=c1cc(-c2ccc(Br)cc2)[nH][nH]1	4%	4	3.0%	1%
O=C(Nc1ccc(Br)cc1Cl)c1ccc2c(=O)n3c(nc2c1)CCC3	x	x	-2.0%	7%
CC(=O)Nc1ccc(S(=O)(=O)NC(=O)C23CC4CC(CC(C4)C2)C3)cc1	-5%	-1	0.0%	5%
CCn1c(C(O)c2ccc3c(c2)OCO3)nc2ccccc21 (configuration not stated)	0%	-5	3.3%	-2%
CC(=O)c1cccc(NC(=O)Cc2cccs2)c1	-9%	8	-1.5%	0%
CCCCNS(=O)(=O)CCNCc1ccco1	x	x	-1.2%	-5%
O=C(NCc1ccncc1)C1COc2ccccc2O1 (configuration not stated)	-3%	-7	0.9%	-6%
COc1ccc(CC(=O)NNC(=O)c2ccc(SCc3cc(F)ccc3F)c([N+](=O)[O-])c2)cc1	-28%	-1	-1.2%	0%
Cc1nn(C)c(NC(=O)c2ccc(Cl)cc2)c1Cl	10%	x	-0.4%	-2%
O=C(CCCc1ccccc1)Nc1ccnn1C1CCN(Cc2ccc(Cl)cc2)CC1	19%	x	0.0%	3%
CCOc1cccc(Oc2ccc(C(F)(F)F)cn2)c1	-5%	-2	-0.6%	0%
Cc1cc(C(F)F)n2nc(C(=O)Nc3cccc(C(F)(F)F)c3)nc2n1	1%	-11	-0.2%	3%
COCCN(CC(=O)NCC1CCCO1)C(=O)CCC(=O)Nc1cc(C)ccn1 (configuration not stated)	-4%	-4	1.1%	-5%
Cc1cc(C)n2nc(C(=O)Nc3cc(S(=O)(=O)N4CCCCC4)ccc3C)nc2n1	x	x	-1.1%	25%
CCOC(=O)C(CSCC(=O)c1ccc(Br)cc1)NC(=O)OC(C)(C)C (configuration not stated)	1%	-8	x	x
CN(C)c1ccc(Cc2ccc(N(C)C)cc2)cc1	x	x	-3.2%	9%
O=C(Cn1nc(-c2ccccc2)oc1=O)OCC(=O)c1ccccc1	x	x	-0.4%	7%
CNc1cc(C(F)(F)F)nc(-c2ccccn2)n1	1%	1	-6.3%	-19%
C=CCN(CC(=O)Nc1c(C)cccc1CC)C(=O)SCCC	-1%	3	-0.4%	11%
CCOC(=O)N1CCN(CC(=O)Nc2ccc(Oc3ccccc3)cc2)CC1	12%	-10	-0.6%	4%
CC(=O)NS(=O)(=O)c1ccccc1	-3%	-1	3.9%	7%
c1cc[n+](CCCC[n+]2ccccc2)cc1	-2%	x	-5.2%	3%
CCOc1ccccc1OCc1nn2c(-c3ccc(C)cc3)nnc2s1	-15%	-7	0.8%	-7%
COc1ccc(OC(=O)NCCc2ccccc2)cc1	-48%	2	-2.4%	3%
COC(=O)Cc1c(O)ccn(Cc2ccc3c(c2)OCO3)c1=O	2%	10	2.1%	-9%
CCNc1oc(COc2ccccc2F)nc1C#N	-39%	-4	u	u
COc1cc(SC)ccc1C(=O)Nc1ccc(C)cc1	-51%	-11	-0.1%	-1%
Cc1nn(C)c(Cl)c1S(=O)(=O)N[C@@H](c1ccccc1)[C@]1(C)C[C@H]1[C@@H](C)C(=O)Nc1ccc2ccccc2c1	-1%	-9&-19	-0.2%	8%
CSCC[C@H](NC(=O)[C@@H]1Cc2ccccc2CN1)C(=O)NC1CCCC1	-1%	x	-0.6%	3%
COc1ccc(-n2nc(C(=O)NCC(=O)NCCCN3CCN(C)CC3)c3ccccc3c2=O)cc1	-1%	x	7.0%	-4%
CCCOc1ccc(-c2c(C(=O)N/N=C/c3ccccc3)nnn2-c2nonc2N)cc1	0%	3	0.5%	6%
CN(Cc1ccc(OC(F)F)cc1)C(=O)c1cccc(S(=O)(=O)N2CCN(c3ccccc3)CC2)c1	x	x	0.8%	10%
C/C(=N\NC(=O)c1ccc(Cl)cc1)c1ccc2[nH]ccc2c1	-14%	x	-2.1%	4%
CCCCn1c(C23CC4CC(CC(C4)C2)C3)n[nH]c1=S	7%	x	-1.4%	2%
COCCn1nnnc1C(C(C)C)N1CCCC(C)C1 (configuration not stated)	-2%	6	-2.2%	13%
Brc1ccccc1-c1nnc(COc2ncnc3ccccc23)o1	-26%	-4	0.1%	-9%
O=c1c2c(nc3cc(-c4ccccc4Cl)[nH]n13)CCS2	-48%	2	u	9%
CC(=O)/C(N)=N/Nc1cccc(Cl)c1	-3%	-9	0.3%	15%
CC1(CCc2ccccc2)NC(=O)N(CC(=O)Nc2ccc3c(c2)OCCO3)C1=O (configuration not stated)	5%	4	1.2%	-15%
O=C(NCC(c1ccc(F)cc1)N1CCOCC1)c1cc(F)c(F)c(F)c1F (configuration not stated)	-2%	4	-1.4%	0%
CCCCn1c(N)c(N(Cc2ccccc2OC)C(=O)c2ccc(N3CCCC3=O)cc2)c(=O)[nH]c1=O	x	x	-3.4%	-18%
NC(=O)COc1ccc(Nc2nnc(-c3ccc(O)cc3)c3ccccc23)cc1	7%	-16	0.4%	33%
CC1C(c2ccccc2)N(C)CCC12NC(=O)NC2=O (configuration not stated)	-2%	-1	0.8%	26%

(continued)
SMILES	miR-21 reporter	GLA inh pH 4.5	Rango complex inh	Rango dissoc inh
CCN1CCN(Cc2c(OC)ccc3ccccc23)CC1	-7%	9	-0.6%	-4%
Cc1noc(C)c1S(=O)(=O)NCc1ccc2c(c1)OCO2	-3%	2	-0.7%	6%
COc1cc(C(=O)NCc2nnc(SCC(=O)Nc3c(C)cc(C)cc3C)o2)cc(OC)c1OC	2%	x	-3.7%	-1%
CCn1cc(C(=O)NCCC(C)C)c(=O)c2cc(S(=O)(=O)N3CCCCC3)ccc21	-2%	x	0.6%	-6%
O=C1CNC(=S)N1CCOc1ccccc1	1%	-10	1.3%	1%
CCc1nc(SCC(=O)Nc2nnc(CC)s2)c2c(=O)n(C)c(=O)n(C)c2n1	1%	x	0.1%	-9%
C/C=C1\NC(=O)[C@H](CC(N)=O)N(C)C(=O)C([C@@H](C)O)NC(=O)C(CCCc2ccc(OC)cc2)NC(=O)[C@H](C(C)C)NC(=O)/C(=C\C)NC(=O)[C@H](O)[C@@H](C[C@@H](O)CCCCCCC)NC(=O)[C@H](C)NC(=O)CN(C)C(=O)[C@H](CCC(N)=O)NC1=O (some centres not stated)	x	x	-0.4%	9%
Cn1cc(Br)c(C(=O)N2CCc3ccccc32)n1	-26%	-5	-0.5%	3%
O=C(NCC(=O)N1CCN(c2ccccc2O)CC1)c1cccs1	x	x	1.3%	4%
C=CCn1c(SCC(=O)Nc2ccccc2OC)nnc1-c1ccco1	-2%	-6	x	x
O=C1c2ccccc2C(=O)C1(CO)c1ccc(OC(F)F)cc1	-54%	x	1.1%	-9%
COc1ccccc1NS(=O)(=O)c1cccc(NC(=O)NCCCl)c1	1%	-5	-4.9%	-1%
CC1CCN(c2nc3c(c(=O)[nH]c(=O)n3C)n2CCSc2nc3ccccc3o2)CC1	-7%	3	x	x
CN(Cc1ccccc1)c1ncnc2sccc12	6%	x	-6.3%	16%
CC(C)(C)C(=O)NC(=S)N1CCc2ccccc21	-11%	-7	-0.2%	-16%
Cc1ccc(S(=O)(=O)N2CCC(C(=O)Nc3ccncc3)CC2)cc1	x	x	-1.1%	7%
COc1ccc(/C=C2\N=C(c3c(-c4ccccc4)noc3C)OC2=O)cc1OC	-2%	0	0.8%	2%
Cc1ccc(N/C=C(/C#N)c2ccsc2)cc1	-44%	-17	5.6%	-2%
COc1cccc(CNC(=O)c2cccc(NC(=O)CC3SC(N4CCCCC4)=NC3=O)c2)c1 (configuration not stated)	x	x	-4.5%	11%
COCc1c(C(=O)N/N=C\c2cccnc2)nnn1-c1nonc1N	6%	x	0.5%	-19%

Some of the compounds tested; the hit share may differ from the screen's.
